Assay outcomes from PubChem BioAssay.
Mtb growth – Mycobacterium tuberculosis H37Rv growth inhibition, cell based, confirmatory dose response (AID 1949). inhibition, % at 10 µg/mL; hits with a dose series show IC50 in µg/mL. most inactive calls were filed without a number and no value below 0 was filed. 1.6% of 100,000 active;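 active means confirmed in a dose series; inconclusive means about 50% or more but not retested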;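 further: bacteria grown 7 days with compound before Alamar blue readout; 0% = untreated bacteria and 100% = reference antibiotic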
Starred values were filed as active, the others as inactive; i = inactive; u = inconclusive. Not all compounds are listed, so the mix of outcomes need not match the whole.

Sample of the layout:
SMILES	Mtb growth
O=C(Nc1ccccc1C(=O)Nc1nccs1)c1ccccc1F	7%
O=Cc1cccc(OCC(=O)Nc2ccc(F)cc2)c1	i

The whole of this part, previewed entries included:
SMILES	Mtb growth
O=C(Nc1ccccc1C(=O)Nc1nccs1)c1ccccc1F	7%
O=Cc1cccc(OCC(=O)Nc2ccc(F)cc2)c1	i
C=CCc1cc(C=O)cc(OC)c1OCc1ccccc1C#N	i
CCCCOc1nc(N2CCOCC2)nc(N2CCOCC2)n1	i
CCN(CC)c1ccc(C(=S)N2CCN(c3ccccc3F)CC2)cc1	i
CCCc1[nH]nc2c1C(c1c(F)cccc1Cl)C(C#N)=C(N)O2 (stereo unspecified)	i
CC1CCc2c(sc3ncnc(N4CCN(Cc5ccc6c(c5)OCO6)CC4)c23)C1 (stereo unspecified)	i
COc1ccc(CNc2ccc(N3CCN(C(C)=O)CC3)cc2)cc1OC	2%
Cc1ccc2[nH]c(-c3ccccc3)c(CN3CCCC3)c(=O)c2c1	i
COc1ccc(Cc2nnc(SCC(=O)Nc3nc(-c4ccc(C)cc4)cs3)o2)cc1	2%
CCN1CCN(c2ccc(NC(=O)Cc3ccc(Cl)cc3)cc2Cl)CC1	38%
COc1cc(C(=O)NC(=S)Nc2cc(C(F)(F)F)ccc2Cl)cc(OC)c1OC	i
CCn1c(SCC(=O)c2ccc(Br)cc2)nnc1C(NC(=O)c1ccc(C)cc1)C(C)C (stereo unspecified)	i
Cc1ccc(-c2cc(C(=O)N3CCCc4ccccc43)c3ccccc3n2)s1	25%
COc1cc2c(cc1NC(=S)NCCc1ccc(OC)c(OC)c1)oc1ccccc12	15%
CCOC(=O)c1cnc2ccccc2c1Nc1cccc(O)c1	i
COc1cccc(OCCNC(=O)c2cccc(OC)c2)c1	i
COc1ccc(C(=O)Nc2ccc(C(C)=O)cc2)cc1[N+](=O)[O-]	i
COc1ccc(C)cc1S(=O)(=O)Oc1cc(C)ccc1C	i
COc1ccc(NC(=O)C(C)Oc2ccc3oc(=O)cc(C)c3c2)cc1 (stereo unspecified)	i
COc1cc(OC)cc(C(=O)N2CCN(S(C)(=O)=O)CC2)c1	i
COc1ccc([N+](=O)[O-])cc1NC(=O)c1ccccc1SC	i
CCC(=O)Nc1ccc(C(=O)Nc2ccccc2Cl)cc1	25%
COc1ccc(CCNC(=O)CN2C(=O)c3ccccc3S2(=O)=O)cc1	i
Cc1ccc2cc3c(nc2c1)N(Cc1ccco1)CC3	1%
CCOc1ccccc1NC(=O)c1ccsc1NC(=O)c1cc2ccccc2oc1=O	6%
CCOc1cc(CNCC2CCCO2)cc(Br)c1OCc1ccccc1 (stereo unspecified)	29%
Cc1cccc(C(=O)Nc2ccc(OC(F)(F)F)cc2)c1	i
Cc1ccc(C(=O)Nc2nc(C(C)(C)C)cs2)cc1[N+](=O)[O-]	27µg/mL*
COc1ccc(-c2nnc3c4ccccc4c(C)nn23)cc1S(=O)(=O)N1CCN(C)CC1	3%
Cc1cccc(C)c1NC(=O)CSc1nnc(-c2ccc(Cl)cc2)n1Cc1ccccc1	6%
O=C(Nc1cccc(NC(=O)c2ccccc2Cl)c1)c1ccco1	i
COc1cc2nc(CCN3C(=O)c4ccccc4C3=O)oc(=O)c2cc1OC	i
COc1cccc(C(=O)Nc2cc3c(cc2C(O)c2ccccc2Cl)OCCO3)c1 (stereo unspecified)	i
O=C(NCCCn1ccnc1)c1ccccc1I	i
O=C(COc1ccc(Br)cc1)Nc1ccc2[nH]c(=O)[nH]c2c1	i
O=[N+]([O-])c1ccc(N2CCN(Cc3ccccc3)CC2)cc1NCc1ccccc1	20%
CCN(CC)c1ccc(NC(=O)Nc2cccc(C(C)=O)c2)cc1	2%
CCOc1ccc(NC(=O)c2cc3ccccc3cc2OC)cc1	i
Cc1ccc(N2CC(C(=O)Nc3ccccc3I)CC2=O)cc1C (stereo unspecified)	i
O=C(Cc1cccs1)NN1CCOCC1	i
COc1ccc(CCNC(=O)C2CC2(c2ccccc2)c2ccccc2)cc1OC (stereo unspecified)	i
COc1cc(OC)c(C2=NOC(C(=O)Nc3c(F)cc(F)cc3Br)C2)cc1Cl (stereo unspecified)	i
Cc1ccccc1C(=O)Nc1nnc(SCC(=O)NCC2CCCO2)s1 (stereo unspecified)	2%
CCOC(=O)C1CCCN(S(=O)(=O)c2cccs2)C1 (stereo unspecified)	i
COc1cccc(NC(=O)C2CC(=O)OC23CCOC(C)(C)C3)c1 (stereo unspecified)	7%
Clc1ccc(COc2ccccc2CNc2ncn[nH]2)c(Cl)c1	i
Cc1ccc(C(=O)N2CCCC2)cc1Br	i
CCC1CCCCN1Cc1c(C)[nH]c2ccc(C)cc2c1=O (stereo unspecified)	u
CCOc1ccccc1Nc1nc(-c2cc3cc(Cl)ccc3oc2=O)cs1	2%
CCc1cccc(CC)c1NC(=O)CN(c1ccccc1F)S(=O)(=O)c1ccc(C)cc1	i
CC(=O)c1cccc(NC(=O)NCCC(c2ccccc2)c2ccccc2)c1	i
CC(=O)NC1C(=O)N(C)c2ccc(F)cc21 (stereo unspecified)	i
O=C(CSc1ccc(Cl)cc1)Nc1ccc(O)cc1	9%
CC1CCc2c(sc(NC(=O)c3ccc(-n4cccn4)cc3)c2C(N)=O)C1 (stereo unspecified)	3%
O=C(NC(=S)Nc1ccccc1N1CCN(C(=O)c2ccccc2)CC1)c1cccc2c(Cl)cccc12	1%
CC(C)NC(=S)N1CCN(S(C)(=O)=O)CC1	i
O=C1CC(C(=O)Nc2cccc(C(=O)O)c2)C(c2ccccc2)O1 (stereo unspecified)	i
COc1ccc(CSc2nc3sc4c(c3c(=O)n2-c2cccc(C)c2)CC(C)(C)OC4)cc1	i
CCOc1ccc(NC(=O)CC2C(=O)N(c3ccc(OC)cc3)C(=S)N2CCN2CCOCC2)cc1 (stereo unspecified)	i
Continued:
SMILES	Mtb growth
CSc1ccccc1NC(=O)c1ccc(C)c([N+](=O)[O-])c1	i
O=C(O)c1cc(NS(=O)(=O)c2cccc([N+](=O)[O-])c2)ccc1O	i
CCOC(=O)c1cccc(NC(=O)COc2ccc3c(C)cc(=O)oc3c2)c1	i
O=c1oc(-c2ccncc2)nc2sc3c(c12)CCCCC3	2%
CS(=O)(=O)N(Cc1ccc(Cl)cc1)c1ccc(C(=O)NCc2ccccc2Cl)cc1	i
COc1cc(OC)cc(C(=O)Nc2ccccc2C(=O)N2CCCC2)c1	2%
O=C(c1c(F)c(F)c(F)c(F)c1F)N1CCc2ccccc2C1	i
COc1ccc(NC(=O)CN(C)S(=O)(=O)c2ccc(F)cc2)cc1Cl	i
Cc1cc(F)ccc1S(=O)(=O)ON1C(=O)c2ccccc2C1=O	i
CCCCOc1cccc(C(=O)NC(=S)Nc2ccc(NC(=O)CCC)cc2)c1	i
CCNC(=S)NCCCn1nc(C(F)(F)F)c(Cl)c1C1CC1	1%
CCOCC(=O)Nc1ccc(F)c(F)c1	i
c1ccc2sc(-c3ccc(NCc4ccc5c(c4)OCO5)cc3)nc2c1	i
Cn1c(SCC(=O)Nc2cccc(C(=O)O)c2)nnc1-c1ccc(Cl)cc1	i
COc1ccc(S(=O)(=O)Nc2ccccc2C(=O)N2CCOCC2)cc1OC	i
CS(=O)(=O)N1CCc2cc(S(=O)(=O)NC(c3ccccc3)c3ccccc3)ccc21	4%
COc1nccnc1NS(=O)(=O)c1ccc(NC(=O)c2c(Cl)cccc2Cl)cc1	i
O=C(NC1CCCCC1)N1CC=C(c2ccccc2)CC1	1%
COc1ccc(S(=O)(=O)N2CCCC2C(=O)O)cc1 (stereo unspecified)	1%
CCOc1nc2c(c(C(F)(F)F)n1)CC(C)C/C2=C\c1ccccc1 (stereo unspecified)	3%
O=C(c1ccc(N2CCN(C3CC(=O)N(c4ccc(F)cc4)C3=O)CC2)cc1)c1cccnc1 (stereo unspecified)	i
CCn1c(Cc2ccc(OC)cc2)nnc1SCC(=O)Nc1c(F)cc(F)cc1Br	i
O=C(NC(=S)Nc1cccc2cc(O)ccc12)c1ccco1	i
CN1CCN(C(=O)c2ccc(CSc3ccc(Cl)cc3)cc2)CC1	i
O=C(Nc1nccs1)c1cc(F)c(F)cc1Cl	i
CC(C)OCCCNC(=O)C(C)Oc1ccccc1 (stereo unspecified)	i
CN(c1ccccc1)S(=O)(=O)c1ccc2[nH]c(=O)[nH]c2c1	i
Cn1c(-c2cccc3ccccc23)n[nH]c1=S	i
O=C(Nc1ccccc1-c1nc2ccccc2s1)c1cccc2c(Br)cccc12	5%
CCNc1nc(NC(C)C)nc(Oc2ccc(OCC(=O)OC)nn2)n1	i
COc1ccc(NC(=O)c2ccco2)cc1NC(=O)c1ccc(-c2ccccc2)cc1	i
COc1cccc(COc2ccc3c(C)cc(=O)oc3c2C)c1	i
COc1ccc(C(=O)NCC(=O)NCC(=O)OCc2ccc(Cl)cc2)cc1	i
CCOc1ccccc1N(CC(=O)N1CCN(C)CC1)S(C)(=O)=O	4%
CC1CCc2c(sc3ncnc(SCC(N)=O)c23)C1 (stereo unspecified)	i
O=C(Nc1ccccc1C(F)(F)F)N1CCc2ccccc21	11%
CCOC(=O)Nc1sc(C(=O)N(CC)CC)c(C)c1C(=O)OCC	i
CCNC(=S)N1CCCC(C(N)=O)C1 (stereo unspecified)	i
COc1ccc(N(CC(=O)N2CCCC2)S(=O)(=O)c2ccc(F)cc2)cc1	i
N/C(=N\c1nc2c(c(=O)[nH]1)CCC2)Nc1ccc2c(c1)OCCO2	i
CCCC(=O)Nc1ccccc1NC(=O)c1ccco1	i
CC(Nc1cc(N2CCN(S(=O)(=O)N(C)C)CC2)ccc1[N+](=O)[O-])c1ccccc1 (stereo unspecified)	5%
CCNc1nc(OC)nc(Oc2ccc(=O)[nH]n2)n1	7%
O=C(C1COc2ccccc2O1)N1CCN(c2cccc(Cl)c2)CC1 (stereo unspecified)	i
CCOCCc1nnc(NC(=O)c2ccccc2SCC)s1	i
CC(NC(=O)c1ccc(Cl)cc1Cl)c1nnc(SCC(=O)Nc2ccc3ccccc3c2)n1C (stereo unspecified)	i
O=C(c1cc2n(n1)C(C(F)(F)F)CC(c1ccco1)N2)N1CCc2ccccc2C1 (stereo unspecified)	i
N/C(=N\OC(=O)c1ccco1)c1cccc(Br)c1	i

22 entries from above, bar-delimited:
molecule | Mtb growth
CCNC(=S)NCCCn1nc(C(F)(F)F)c(Cl)c1C1CC1 | 1%
CCOCC(=O)Nc1ccc(F)c(F)c1 | i
c1ccc2sc(-c3ccc(NCc4ccc5c(c4)OCO5)cc3)nc2c1 | i
Cn1c(SCC(=O)Nc2cccc(C(=O)O)c2)nnc1-c1ccc(Cl)cc1 | i
COc1ccc(S(=O)(=O)Nc2ccccc2C(=O)N2CCOCC2)cc1OC | i
CS(=O)(=O)N1CCc2cc(S(=O)(=O)NC(c3ccccc3)c3ccccc3)ccc21 | 4%
COc1nccnc1NS(=O)(=O)c1ccc(NC(=O)c2c(Cl)cccc2Cl)cc1 | i
O=C(NC1CCCCC1)N1CC=C(c2ccccc2)CC1 | 1%
COc1ccc(S(=O)(=O)N2CCCC2C(=O)O)cc1 (stereo unspecified) | 1%
CCOc1nc2c(c(C(F)(F)F)n1)CC(C)C/C2=C\c1ccccc1 (stereo unspecified) | 3%
O=C(c1ccc(N2CCN(C3CC(=O)N(c4ccc(F)cc4)C3=O)CC2)cc1)c1cccnc1 (stereo unspecified) | i
CCn1c(Cc2ccc(OC)cc2)nnc1SCC(=O)Nc1c(F)cc(F)cc1Br | i
O=C(NC(=S)Nc1cccc2cc(O)ccc12)c1ccco1 | i
CN1CCN(C(=O)c2ccc(CSc3ccc(Cl)cc3)cc2)CC1 | i
O=C(Nc1nccs1)c1cc(F)c(F)cc1Cl | i
CC(C)OCCCNC(=O)C(C)Oc1ccccc1 (stereo unspecified) | i
CN(c1ccccc1)S(=O)(=O)c1ccc2[nH]c(=O)[nH]c2c1 | i
Cn1c(-c2cccc3ccccc23)n[nH]c1=S | i
O=C(Nc1ccccc1-c1nc2ccccc2s1)c1cccc2c(Br)cccc12 | 5%
CCNc1nc(NC(C)C)nc(Oc2ccc(OCC(=O)OC)nn2)n1 | i
COc1ccc(NC(=O)c2ccco2)cc1NC(=O)c1ccc(-c2ccccc2)cc1 | i
COc1cccc(COc2ccc3c(C)cc(=O)oc3c2C)c1 | i

More compounds follow:
SMILES	Mtb growth
COc1ccccc1N1CCN(C(=S)NC(=O)c2ccccc2Cl)CC1	i
Cc1cc([N+](=O)[O-])cc2c1N(C)C(=O)C2(O)c1c(C)[nH]c2ccccc12 (stereo unspecified)	i
CCCC(=O)Nc1ccc(NC(=S)NC(=O)CC(C)C)cc1	i
O=S(=O)(Nc1cc(Sc2ccccc2)c(O)c2ccccc12)c1cccs1	26µg/mL*
C=CCNCCCCOc1ccc(Br)cc1Cl	1%
CCc1cccc(CC)c1NC(=O)CN(c1cccc(Cl)c1)S(=O)(=O)c1ccc(OC)cc1	i
CCc1ccccc1NS(=O)(=O)c1cc(Cl)c(C)cc1OC	i
CN(CCOCCOc1ccccc1-c1ccccc1)Cc1ccccc1	i
Cc1ccccc1Cn1nc(C)c(NC(=O)c2nc3n(n2)C(C(F)F)CC(C)N3)c1C (stereo unspecified)	i
Cc1ccc(Cl)cc1NC(=O)CSc1nnc(COc2ccccc2C)n1C	1%
COc1cc2ccccc2cc1C(=O)NC(=S)Nc1cc(Cl)c(Cl)cc1Cl	i
CCC(C)C(NC(=O)c1ccccc1NC(=O)c1ccc(OC)cc1)C(=O)NC1CCCCC1 (stereo unspecified)	i
CCOc1ccc(N(CC(=O)Nc2ccccc2C(=O)NCc2ccco2)S(=O)(=O)c2ccc(OC)c(OC)c2)cc1	i
CN1CCN(c2ccc(NC(=O)c3ccc(Br)o3)cc2)CC1	i
CC1=C(C(N)=O)C(c2ccc(F)cc2)n2nc(SCc3ccccc3)nc2N1 (stereo unspecified)	i
Cc1ccc2[nH]c(=O)c(Cc3ccccc3)c(O)c2c1	i
CCOC(=O)C1CCN(C(=O)CN(c2ccccc2)S(C)(=O)=O)CC1	2%
COc1ccc(OC)c(NC(=O)CSc2nnnn2-c2ccccc2)c1	i
O=C(CSc1ncn(-c2ccccc2)n1)c1cccs1	5%
Cc1ccc(OCCn2nnc3ccccc32)c(C)c1	i
COc1cc(C)c(S(=O)(=O)N2CCN(C)CC2)cc1C	i
OCCN1CCN(c2nc(NCC3CCCO3)c3ccccc3n2)CC1 (stereo unspecified)	6%
COc1ccc(NC(=O)c2c(OC)cccc2OC)cc1Cl	i
Fc1ccc(OCCSc2nc3ccccc3s2)cc1	i
